Ecoli rRNA inh: reduced GFP signal of wild-type E. coli, primary screen, bacterial rRNA inhibitor project, GFP/RFP fluorescence, OD600, single point; AID 720706, 2013; E. coli WT GFP vs humanized-ribosome RFP mutants, 24 h; active compounds read low; DMSO median 0, no signal -100; GFP signal change (wild-type ribosome), % (test concentration not listed); 350,000 compounds, 1.6% hits;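 active = significant combined selectivity score with lowered wild-type GFP, culture density cut under 30%, mutant RFP and density less affected; inactive = any of these conditions unmet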; note: one replicate is shown; some compounds called inactive have numbers as strong as hits
FGF22 binding: binders of human FGF22 protein, primary screen, FGF22 synaptogenesis inhibitor project, biophysical, thermal shift, single point; AID 651658, 2012; recombinant FGF22 thermal shift, SYPRO orange fluorescence; percent of sucrose octasulfate shift, DMSO zero; 340,000 compounds, 1.5% hits; calls only at 9.99 µM; Fibroblast growth factor 22 (Homo sapiens), Q9HCT0;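 active = melting point raised past a set limit in the mean and every replicate; three in four hits are not shown here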
Target sequence (Q9HCT0 whole entry, looked up): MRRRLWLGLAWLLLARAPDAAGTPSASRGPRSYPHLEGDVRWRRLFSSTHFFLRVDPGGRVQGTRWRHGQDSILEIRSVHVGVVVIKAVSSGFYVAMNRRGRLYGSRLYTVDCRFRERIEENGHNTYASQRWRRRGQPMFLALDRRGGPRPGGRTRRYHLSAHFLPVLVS
MLL AF4-AF9 inh: inhibitors of AF4 peptide binding to AF9, primary screen, biochemical, AlphaScreen, biotin-AF4 peptide, FLAG-AF9, single point; Protein AF-9 (Homo sapiens), P42568; inhibition, % at 10 µM; 350,000 compounds, 0.47% hits; AID 651704, 2012;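 active = every replicate reaching a set inhibition limit, whatever the replicate mean, cut at about 25% in these data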;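 note: 0% = plate neutral control median and 100% = total signal loss; the record names both 10 and 1 µM as test concentration; the first replicate is given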
Target sequence (P42568 whole entry, looked up): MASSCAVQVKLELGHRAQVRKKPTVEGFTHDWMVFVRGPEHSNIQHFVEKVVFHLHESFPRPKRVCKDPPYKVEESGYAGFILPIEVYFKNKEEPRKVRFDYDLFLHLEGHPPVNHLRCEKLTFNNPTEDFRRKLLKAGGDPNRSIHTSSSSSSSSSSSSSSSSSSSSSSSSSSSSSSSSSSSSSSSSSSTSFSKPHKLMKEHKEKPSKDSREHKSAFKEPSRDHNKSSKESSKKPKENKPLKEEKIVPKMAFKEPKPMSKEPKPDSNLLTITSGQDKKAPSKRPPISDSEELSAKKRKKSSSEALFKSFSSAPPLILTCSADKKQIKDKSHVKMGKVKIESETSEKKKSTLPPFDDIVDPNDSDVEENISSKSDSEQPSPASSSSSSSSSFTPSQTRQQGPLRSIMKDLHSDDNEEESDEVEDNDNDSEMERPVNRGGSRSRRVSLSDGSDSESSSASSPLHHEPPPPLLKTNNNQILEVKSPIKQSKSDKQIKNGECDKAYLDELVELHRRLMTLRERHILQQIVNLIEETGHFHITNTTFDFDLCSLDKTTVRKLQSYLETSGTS
Ecoli rRNA inh OD600: recorded beside Ecoli rRNA inh, whose call it bears; OD600 change, %; measured here: OD600 growth;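 optical density of the mix in the first replicate; 0 = DMSO median and -100 = no signal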
Ecoli rRNA inh RFP: second read-out of Ecoli rRNA inh, no call of its own (marks repeat the call); RFP signal change, %; measured here: RFP humanized mutant strains;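 first replicate; 0 = DMSO median and -100 = no signal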
Starred values were filed as active, the others as inactive; i = inactive; & = joins results of further samples. Not all compounds are listed; the hit share may differ from the screen's.

SMILES | Ecoli rRNA inh | Ecoli rRNA inh OD600 | Ecoli rRNA inh RFP | FGF22 binding | MLL AF4-AF9 inh
C[C@@H]1CCCCO[C@H](CN(C)C(=O)Nc2ccc3c(c2)OCO3)[C@@H](C)CN([C@H](C)CO)C(=O)c2cc(NC(=O)CCC(F)(F)F)ccc2O1 | -2.0 | 8.4 | -0.7 | i | 0.7
C[C@@H]1CN([C@@H](C)CO)C(=O)c2cc(NS(=O)(=O)c3cn(C)cn3)ccc2O[C@@H](C)CCCCO[C@@H]1CN(C)CC1CCCCC1 | 1.5 | -4.3 | -1.9 | i | -4.7
CCN(CC)c1ccc(N=C2C=CC(=O)C=C2NC(C)=O)cc1 | -10.0 | 12.8 | 42.8 | i | -4.5
Cc1ccccc1S(=O)(=O)N[C@H]1CC[C@@H](CCNS(=O)(=O)c2cccc(F)c2)O[C@@H]1CO | -1.7 | 4.1 | 0.6 | i | -1.3
COc1cccc(S(=O)(=O)N(C)C[C@H]2OCc3cnnn3CCCC(=O)N([C@H](C)CO)C[C@H]2C)c1 | -3.5&-2.3 | -6.6&-4.2 | -0.3&-1.6 | i | -1.7&-0.5&0.0
CO[C@@H]1CN(C)C(=O)c2ccc(NC(=O)Nc3c(C)noc3C)cc2OC[C@H](C)N(C)C[C@@H]1C | 3.4 | 10.8 | -2.8 | i | -4.5
COc1ccccc1-c1cnc2c(c1)C(=O)N([C@H](C)CO)C[C@H](C)[C@H](CN(C)C(C)=O)O2 | 0.6 | 6.2 | -2.5 | i | -3.1
O=C(Nc1ccc(F)cc1)N1C[C@H]2[C@@H](c3ccccc31)[C@H](CO)N2C(=O)c1ccccc1 | -0.1 | 5.2 | 1.6 | i | -0.4
CCOC(=O)C1CCCN(C(=O)c2ccc3c(c2)OCCO3)C1 (configuration not stated) | 10.7 | 12.1 | 0.1 | i | 0.6
CN(C)CC(=O)N1[C@@H]2c3ccc(-c4ccncc4)c(=O)n3C[C@H]1[C@H](CO)[C@H]2C(=O)NC1CCC1 | 0.7 | 5.6 | -2.5 | i | -2.7
COCc1cn(CC[C@H]2CC[C@H](NC(=O)Nc3ccc4c(c3)OCO4)[C@@H](CO)O2)nn1 | 2.2 | 1.4 | -0.5 | i | -1.4
C[C@@H]1CN([C@@H](C)CO)C(=O)c2cc(NC(=O)Nc3ccc(C(F)(F)F)cc3)ccc2O[C@@H]1CN(C)CC1CC1 | 2.4 | -39.5 | 25.5 | i | 8.4
CO[C@@H]1CN(C)C(=O)c2ccc(NC(=O)C3CCOCC3)cc2OC[C@H](C)N(C(C)=O)C[C@H]1C | 3.7 | 0.7 | -0.4 | i | 1.7
Cc1noc(C)c1NC(=O)Nc1cccc2c1O[C@@H](CN(C)S(C)(=O)=O)[C@@H](C)CN([C@H](C)CO)C2=O | 8.5 | 8.1 | -0.9 | i | -1.5
C[C@@H]1CCCCO[C@@H](CN(C)Cc2ccc(Cl)c(Cl)c2)[C@@H](C)CN([C@H](C)CO)C(=O)c2cc(NC(=O)C3CCCCC3)ccc2O1 | -0.5 | 4.1 | 0.4 | i | -0.7
C[C@H](CO)N1C[C@H](C)[C@H](CN(C)C)Oc2ccc(NC(=O)Cc3ccccc3)cc2CC1=O | 7.8 | -0.6 | -1.9 | i | 0.4
C[C@H]1CCCCO[C@@H](CN(C)C(=O)Nc2ccc(C(F)(F)F)cc2)[C@@H](C)CN([C@@H](C)CO)C(=O)c2cc(NC(=O)c3ccccc3)ccc2O1 | 2.0 | 4.5 | -1.9 | i | -10.4
COCCn1c(=S)[nH]c2cc(C(=O)NCc3ccccc3)ccc2c1=O | 5.5 | 9.9 | 9.1 | i | 0.6
Cc1cccc(S(=O)(=O)N2CCCCN3[C@H](CO)[C@@H](c4ccc(C#CC(C)C)cc4)[C@H]3C2)c1 | -29.1 | -27.0 | -1.3 | i | 1.3
CN(C)CC(=O)N1[C@@H]2c3ccc(C4=CCCCC4)c(=O)n3C[C@H]1[C@H](CO)[C@H]2C(=O)NCC1CC1 | 1.6 | 1.8 | -1.7 | i | 1.4
Cc1noc(C)c1S(=O)(=O)Nc1ccc2c(c1)C(=O)N([C@H](C)CO)C[C@@H](C)[C@H](CN(C)Cc1ccc3c(c1)OCO3)OCCCC[C@H](C)O2 | 1.7 | 5.2 | 1.9 | i | 5.9
C/C=C/c1ccc([C@H]2[C@@H](C#N)N(C(=O)NC3CCCC3)[C@@H]2CO)cc1 | -1.1 | -0.1 | -0.8 | i | -1.9
CO[C@H]1CN(C)C(=O)c2ccc(NC(C)=O)cc2OC[C@@H](C)N(C(=O)c2ccc(F)cc2)C[C@H]1C | -1.1 | 3.3 | 0.8 | i | -2.3
COc1ccc(CN(C)C[C@H]2Oc3ccc(NS(=O)(=O)c4ccccc4)cc3C(=O)N([C@H](C)CO)C[C@@H]2C)cc1 | -1.3 | 2.3 | -2.2 | i | -0.1
CCC(=O)Nc1ccc2c(c1)C(=O)N(C)C[C@H](OC)[C@H](C)CN(Cc1ccccc1)[C@@H](C)CO2 | -0.1 | 0.6 | 1.5 | i | 0.6
Cc1ccc(S(=O)(=O)Nc2cccc3c2O[C@H](CN(C)C(=O)NC2CCCCC2)[C@@H](C)CN([C@@H](C)CO)C3=O)cc1 | 0.1 | -3.4 | -0.1 | i | -1.3
CO[C@H]1CN(C)C(=O)c2ccc(NC(C)=O)cc2OC[C@@H](C)N(C(=O)c2ccncc2)C[C@@H]1C | -1.0 | -2.9 | 0.0 | i | -0.1
CO[C@H]1CN(C)C(=O)c2ccc(NS(=O)(=O)CC(F)(F)F)cc2OC[C@H](C)N(Cc2nccs2)C[C@H]1C | -1.9 | 4.9 | -0.5 | i | 0.7
O=C(NCc1ccccc1)[C@@H]1CCCN1C(=O)[C@@H]1CCCN1C(=O)c1ccc(Cl)cc1Cl | -6.4 | 4.4 | -4.3 | i | -1.4
COc1cccc(C=CC(=O)C=CC=Cc2ccccc2)c1 | 4.1 | 6.9 | 12.5 | i | 1.6
O=C(Cc1ccncc1)NCC[C@H]1CC[C@H](NC(=O)C2CCOCC2)[C@H](CO)O1 | 0.7 | 1.7 | -1.2 | i | -0.3
C[C@@H]1CN([C@H](C)CO)S(=O)(=O)c2ccc(-c3ccccc3)cc2O[C@H]1CN(C)Cc1cccc(F)c1 | 1.9 | 10.4 | -0.2 | i | 0.9
CN1CCN(C(=O)C[C@H]2CC[C@H]3[C@@H](COC[C@H](O)CN3C(=O)C3CCCC3)O2)CC1 | 3.1 | 22.8 | 18.7 | i | -0.7
O=C1C=C(N2CCN(c3ccccn3)CC2)C(=O)c2c(O)ccc(O)c21 | 11.9 | 14.7 | 9.5 | i | 3.5
C[C@H](CO)N1C[C@H](C)[C@@H](CN(C)S(=O)(=O)c2ccc(F)cc2)OCCCC[C@H](C)Oc2ccc(NC(=O)c3ccncc3)cc2C1=O | -5.6 | -2.1 | 0.0 | i | 1.6
O=C(Nc1ccc(Cl)c(Cl)c1)N[C@@H]1CC[C@@H](CCn2cc(C3CC3)nn2)O[C@H]1CO | -10.5 | -8.4 | 3.7 | i | 1.5
COC(=O)C[C@H]1C[C@H]2c3cc(NS(C)(=O)=O)ccc3O[C@H]2[C@@H](CO)O1 | 3.0 | 8.7 | -1.3 | i | -3.8
Cc1ccc(S(=O)(=O)N(C)C[C@H]2Oc3ccc(NC(=O)CCCCCC(=O)Nc4ccccc4N)cc3C(=O)N([C@H](C)CO)C[C@@H]2C)cc1 | -4.7 | 0.7 | 0.6 | i | 1.3
CCS(=O)(=O)N1[C@H](CO)[C@H](c2ccc(C3=CCCCC3)cc2)[C@@H]1C#N | 4.4 | 25.4 | -2.1 | i | 0.6
CCS(=O)(=O)Nc1ccc2c(c1)C(=O)N(C)[C@@H]1CC[C@H](CC(=O)N[C@@H]3CCN(Cc4ccccc4)C3)O[C@@H]1CO2 | -1.2 | -1.7 | -0.4 | i | -1.1
O=C(c1ccco1)N1CCC2CC1c1c(Cl)cccc12 (configuration not stated) | -0.5 | -11.1 | -1.8 | i | -1.4
O=C(NC1Cc2ccccc2C1)[C@H]1[C@H](CO)[C@H]2Cn3c(cccc3=O)[C@@H]1N2Cc1ccccc1F | -3.0 | 4.3 | 2.4 | i | 0.0
O=S(=O)(N[C@H]1CC[C@H](CCn2cc(C3(O)CCCC3)nn2)O[C@H]1CO)c1ccccc1 | 2.0 | 8.6 | -0.1 | i | -1.2
O=C(N[C@H]1CC[C@H](CCn2cc(-c3ccccn3)nn2)O[C@@H]1CO)c1ccc(F)cc1 | 3.4 | 0.4 | -1.0 | i | -2.5
Cc1[nH]c2ccccc2c1C1=CC(=O)C=CC1=O | 1.0 | 11.7 | 1.0 | i | 16.2
COc1cccc(C(O)c2nc(-c3cc(F)cc(F)c3)cs2)c1 (configuration not stated) | -34.0 | -65.7 | 1.5 | i | -4.9
C[C@H](C(=O)N(C)C[C@@H]1OCc2ccccc2-c2ccccc2C(=O)N([C@@H](C)CO)C[C@@H]1C)c1ccccc1 | -4.8 | -7.1 | 6.5 | i | 1.0
C[C@H]1CN([C@@H](C)CO)C(=O)Cc2cc(NS(=O)(=O)c3ccc(Cl)cc3)ccc2O[C@H]1CN(C)Cc1ccc(C(=O)Nc2ccccc2N)cc1 | -0.2 | -7.8 | 3.7 | i | -12.6
COc1cccc(C=NNc2nc3ccccc3s2)c1OC | -4.4 | 9.0 | -0.2 | i | -0.7
CCS(=O)(=O)N1CC2(CN(C)[C@@H](CO)c3c2c2ccc(OC)cc2n3C)C1 | -1.4 | -1.1 | -0.6 | i | -2.6

Continued (4 carried over from the part before).
SMILES | Ecoli rRNA inh | Ecoli rRNA inh OD600 | Ecoli rRNA inh RFP | FGF22 binding | MLL AF4-AF9 inh
C[C@H](C(=O)N(C)C[C@@H]1OCc2ccccc2-c2ccccc2C(=O)N([C@@H](C)CO)C[C@@H]1C)c1ccccc1 | -4.8 | -7.1 | 6.5 | i | 1.0
C[C@H]1CN([C@@H](C)CO)C(=O)Cc2cc(NS(=O)(=O)c3ccc(Cl)cc3)ccc2O[C@H]1CN(C)Cc1ccc(C(=O)Nc2ccccc2N)cc1 | -0.2 | -7.8 | 3.7 | i | -12.6
COc1cccc(C=NNc2nc3ccccc3s2)c1OC | -4.4 | 9.0 | -0.2 | i | -0.7
CCS(=O)(=O)N1CC2(CN(C)[C@@H](CO)c3c2c2ccc(OC)cc2n3C)C1 | -1.4 | -1.1 | -0.6 | i | -2.6
CCCNC(=O)N1C[C@@H](C)[C@H](OC)CN(C)C(=O)c2ccc(NC(=O)CCC)cc2OC[C@H]1C | 1.8 | 2.0 | 0.7 | i | -2.3
C[C@H](CO)N1C[C@H](C)[C@H](CN(C)Cc2ccc3c(c2)OCO3)Oc2ccc(NS(=O)(=O)c3ccc(Cl)cc3)cc2CC1=O | 0.9 | -20.4 | 8.3 | i | -5.9
CC1(C(=O)NCc2ccccc2)CCC(=O)N1CCc1c[nH]c2ccccc12 (configuration not stated) | 4.1 | -9.9 | 3.3 | i | 1.4
C[C@@H]1CN([C@H](C)CO)C(=O)c2cc(NC(=O)Cn3cnnn3)ccc2O[C@H]1CN(C)Cc1ccc(C(F)(F)F)cc1 | -1.5 | 0.0 | -2.1 | i | -3.6
CO[C@@H]1CN(C)C(=O)c2ccc(NC(C)=O)cc2OC[C@@H](C)N(Cc2ccccc2F)C[C@@H]1C | -5.0 | 0.9 | 2.6 | i | 7.3
CC(C)NC(=O)N1C[C@@H]2[C@H](c3ccccc31)[C@H](CO)N2C(=O)c1ccncc1 | 0.7 | -1.0 | -1.0 | i | -0.2
Cn1c(N)c(C(=O)CSc2nn(-c3ccccc3)c(=S)s2)c(=O)n(C)c1=O | 10.0 | 4.3 | -2.0 | i | 0.8
COCC(=O)N1[C@H](C#N)[C@H](c2ccc(C#CCC3CCCC3)cc2)[C@@H]1CO | -46.1 | -73.2 | -4.4 | i | 1.4
CN1C(=O)c2cc(NC(=O)c3ccc(C(F)(F)F)cc3)ccc2OC[C@@H]2O[C@@H](CC(=O)NC3Cc4ccccc4C3)CC[C@H]21 | -3.7 | -20.8 | 45.6 | i | 1.1
Cc1ccc(S(=O)(=O)N(C)C[C@H]2Oc3c(NS(=O)(=O)c4cccs4)cccc3C(=O)N([C@@H](C)CO)C[C@@H]2C)cc1 | -5.3 | -2.0 | -2.0 | i | -1.3
O=C(N[C@H]1CC[C@H](CCNC(=O)C2CCC2)O[C@@H]1CO)c1ccncc1 | 0.3 | -2.9 | -0.3 | i | -1.4
CCCNC(=O)N(C)C[C@H]1Oc2ncc(C#C[C@@H](C)O)cc2C(=O)N([C@@H](C)CO)C[C@@H]1C | 2.0 | -2.8 | -2.0 | i | -2.7
C[C@@H]1CN([C@H](C)CO)C(=O)Cc2cc(NC(=O)CCCCCC(=O)Nc3ccccc3N)ccc2O[C@H]1CN(C)Cc1ccccc1 | 0.0 | -1.1 | 2.8 | i | -3.6
